Screens (PubChem)
VACV Venus inh: inhibitors of vaccinia virus (Venus reporter); Vaccinia virus Venus reporter expression, fluorescence; Potency, µM (series often up to 36.5 µM), inactives show at the top dose activity change, negative = inhibition, hits mostly inhibitors; 0.46% of 330,000 active; AID 720580; active means well fitted inhibition curve with a large enough effect; inconclusive means small, poorly fitted or top-dose-only effect; inactive means no such curve, though single readings can be large or run the other way; tested in A549 cells; further: nearly all actives have a fitted effect of over 30% in size; inactives centre near -10
VACV mCherry inh: inhibitors of vaccinia virus infection (mCherry reporter signal); Potency, µM (titrated, usually from 36.5 µM), for inactives: at the top dose activity change, negative = inhibition, usual class: inhibitors; Vaccinia virus mCherry reporter infection, fluorescence; about a quarter of the inactives have no number; 0.63% of 310,000 active; active = well fitted inhibition curve with a large enough effect; inconclusive = small, poorly fitted or top-dose-only effect; inactive = no such curve, though single readings can be large or run the other way; tested in A549 cells; further: nearly all actives have a fitted effect of over 35% in size; inactives centre near -10
An asterisk follows results filed as active; i = inactive; ? = inconclusive; . = not tested or not shown; & = joins results of further samples; [ ] = remark or other dose. On the % scale 0 is the no-effect control and ±100 the full control effect; potency means the concentration at half of the fitted maximal effect.

SMILES | VACV Venus inh | VACV mCherry inh
CN1CCC(N(C)S(=O)(=O)c2ccc(NC(=O)COc3cccc(Cl)c3)cc2)CC1 | ? | ?
CC12CC3CC(C)(C1)CC(C(=O)N1CCN(C(=O)c4ccco4)CC1)(C3)C2 | -9% | i
CC(=O)c1ccc(NC(=O)C2CCC(C)NC2=O)cc1 (stereo not drawn) | 3% | .
CN(C)S(=O)(=O)c1ccc(C(=O)Nc2ccccc2[N+](=O)[O-])cc1 | -22% | -9%
Cc1ccccc1N1CCN(C2CCCN(C(=O)c3cc(C(C)C)[nH]n3)C2)CC1 (stereo not drawn) | -17% | -10%
Cc1cccc(C)c1NS(=O)(=O)c1ccc(NC(=O)c2ccc(Cl)c([N+](=O)[O-])c2)cc1 | ? | ?
Cc1ccnc(NC(=O)c2sc3ccccc3c2Cl)c1 | -11% | -5%
Cc1cc(C)n(-c2nnc(Nc3cc(Cl)ccc3C)c3ccccc23)n1 | -2% | -6%
COc1cccc(C(=O)Nc2cc(C(F)(F)F)ccc2Cl)c1 | -13% | i
Cc1nc2cc(NC(=O)N(C)c3ccc4ccccc4c3)ccc2o1 | -12% | -12%

Quoted at random: five entries already listed
SMILES | VACV Venus inh | VACV mCherry inh
CC12CC3CC(C)(C1)CC(C(=O)N1CCN(C(=O)c4ccco4)CC1)(C3)C2 | -9% | i
Cc1cccc(C)c1NS(=O)(=O)c1ccc(NC(=O)c2ccc(Cl)c([N+](=O)[O-])c2)cc1 | ? | ?
Cc1nc2cc(NC(=O)N(C)c3ccc4ccccc4c3)ccc2o1 | -12% | -12%
CN(C)S(=O)(=O)c1ccc(C(=O)Nc2ccccc2[N+](=O)[O-])cc1 | -22% | -9%
Cc1ccnc(NC(=O)c2sc3ccccc3c2Cl)c1 | -11% | -5%

Later entries
SMILES | VACV Venus inh | VACV mCherry inh
CCOc1ccccc1NC(=O)Cn1nnc(-c2ccc(OCC)c(OCC)c2)n1 | ? | ?
CCCCCCn1c(CN2CCCCC2CC)nc2c1c(=O)n(C)c(=O)n2C (stereo not drawn) | -15% | -15%
O=C(Nc1ccc(F)cc1F)C1CCN(C(=O)c2ccc(Br)cc2)CC1 | -15% | i
CCSc1nnc(NC(=O)/C=C/c2ccco2)s1 | -17% | ?
COc1ccc(CN2CCCC(CNC(=O)c3ccc(F)cc3)C2)c(F)c1 (stereo not drawn) | -9% | 0%
O=C(O)C1CC=CCC1C(=O)NC1CCCCC1 (stereo not drawn) | -3% | i
O=C(NCc1ccccc1Cl)C(=O)NCC(c1ccco1)S(=O)(=O)c1cccs1 (stereo not drawn) | -10% | -18%
OCCC1CN(Cc2cccc(-n3cccn3)c2)CCN1Cc1ccccc1 (stereo not drawn) | -14% | -2%
COc1ccc(N(CC(=O)NC2CCCCCCC2)S(=O)(=O)c2c(C)nn(C)c2C)cc1 | -9% | -7%
Cc1ccccc1-c1nc(CN2CCC(C(=O)NCc3cccs3)CC2)c(C)o1 | -23% | ?
O=C(NCCCN1CCOCC1)c1ccc(N2CCCC2)c([N+](=O)[O-])c1 | -13% | -21%
O=C(Nc1nc2ccccc2n1Cc1ccccc1)c1ccco1 | -1% | .
CN(C)C(=O)C(OC(=O)c1ccc2c(c1)CCCC2)c1ccccc1 (stereo not drawn) | -10% | -20%
C[C@@H]1CN([C@@H](C)CO)C(=O)CCCn2nncc2CO[C@H]1CN(C)Cc1cccc(O)c1 | -23% | -13%
Cc1ccc(/C=C/C(=O)OCC(=O)N2CC(=O)Nc3ccccc32)o1 | -20% | -1%
O=C(O)c1c2cc(Br)ccc2nc2[nH]c(=O)[nH]c(=O)c12 | -1% | -12%
CCOCCCNC(=O)c1ccc2c(c1)ncn2-c1ccc(C)cc1C | -15% | -3%
COc1ccc(C(=O)n2cc(C(=O)c3cc(C)ccc3O)cn2)cc1 | -4% | -16%
COc1ccc(NC(=S)N(CCN(C)C)Cc2cccs2)cc1 | -8% | -10%
OCC1OC(Oc2c(Br)cc(Br)cc2Br)C(O)C(O)C1O (stereo not drawn) | -13% | i

Entries of single compounds, quoted from the list.
`O=C(O)c1c2cc(Br)ccc2nc2[nH]c(=O)[nH]c(=O)c12` is listed as VACV Venus inh: -1%; VACV mCherry inh: -12%
`COc1ccc(NC(=S)N(CCN(C)C)Cc2cccs2)cc1` is listed as VACV Venus inh: -8%; VACV mCherry inh: -10%
`C[C@@H]1CN([C@@H](C)CO)C(=O)CCCn2nncc2CO[C@H]1CN(C)Cc1cccc(O)c1` is listed as VACV Venus inh: -23%; VACV mCherry inh: -13%

Continuation.
SMILES | VACV Venus inh | VACV mCherry inh
CC(C)CC(CO)N1CCN(C(=O)c2cccc(C(F)(F)F)c2)CCC1=O (stereo not drawn) | -7% | i
Cc1cc(C)n(Cc2ccccc2)c(=O)c1S(=O)(=O)c1ccccc1 | -29% | .
O=C(NCCc1ccccn1)C1CCCN1S(=O)(=O)c1ccc(Cl)cc1 (stereo not drawn) | 5% | -13%
Cc1ccc2nc(-c3ccccc3)cc(C(=O)Nc3cccnc3)c2c1 | -14% | -10%
O=C(COc1ccc(S(=O)(=O)N2CCOCC2)cc1)NC1CCCC1 | -10% | -13%
COc1ccc2nc(NC(=O)c3nc(SCc4cccc(C)c4)ncc3Cl)sc2c1 | ? | ?
CCOC(=O)c1ccc(NC(=O)C2CCN(C(=O)N3CC(C)Oc4ccc(C)cc43)CC2)cc1 (stereo not drawn) | -16% | -17%
O=C(c1ccc(NC(=S)NCc2ccc(Cl)cc2)cc1)N1CCCCC1 | -21% | i
CCOc1ccc(Cl)cc1CN1CCOCC1 | -20% | .
COc1ccc(NS(=O)(=O)c2ccc3oc(SCc4ccc(F)cc4)nc3c2)cc1 | ? | ?
CC(C)/C=C/C(=O)N1CCC(N2CCC(C(=O)NCC3CCCO3)CC2)CC1 (stereo not drawn) | 1% | i
CC(C)(C)c1cc(=O)n2[nH]c(N)nc2n1 | -4% | i
CC1CCN(C(=O)CSc2nnc(-c3ccco3)n2N)CC1 | -14% | i
CC1CN(S(=O)(=O)c2cc(C(=O)NCCC3=CCCCC3)ccc2Cl)CC(C)O1 (stereo not drawn) | -16% | -10%
C/C(=C\C(=O)c1ccc(Br)cc1)NCc1ccc2c(c1)OCO2 | -11% | i
CCCCSc1nc(C)nc2c1c(=O)n(C)c(=O)n2C | -11% | -9%
CCc1ccc(Nc2ccc3nonc3c2[N+](=O)[O-])cc1 | -1% | -1%
Cc1cc(=O)[nH]c2nnnn12 | 5% | -9%
COc1ccc(N2CCN(C(=O)CSc3nnc(COc4cccc5cccnc45)o3)CC2)cc1 | -16% | -18%
CC1(C)OC(=O)C2=C(C[C@@H](C3CC3)O[C@@H]2C2CC2)O1 | 6% | 28%
Cc1csc(NC(=O)c2ccc3ccccc3n2)n1 | -13% | -9%
CN(CC(=O)NC1CC(C)(C)NC(C)(C)C1)S(=O)(=O)c1cc(Cl)ccc1Cl | -2% | i
O=C(Nc1ccccc1)c1ccc(Nc2c([N+](=O)[O-])cc([N+](=O)[O-])c3ccccc23)cc1 | ? | ?
CCN(C(=O)c1sc2nc3n(c(=O)c2c1C)CCCCC3)c1ccc(OC)cc1 | -13% | -6%
C/C(=N\NS(=O)(=O)c1ccccc1)c1cc(Cl)cc(Cl)c1O | -18% | i
CC(OC(=O)c1ccc(NC(=O)CC#N)cc1)C(=O)Nc1nc(-c2ccccc2)cs1 (stereo not drawn) | -5% | ?
Cc1ccc2nc(Nc3nc(C)cc(-c4ccccc4)n3)[nH]c(=O)c2c1 | 2% | -9%
COc1cccc(NC(=O)C2C3CCC4C(CCC32)C4(Cl)Cl)c1 (stereo not drawn) | -23% | -4%
CC(=O)C1(O)Cc2c(O)c3c(c(O)c2C(OC2CC(N)C(O)C(C)O2)C1)C(=O)c1c(O)cccc1C3=O (stereo not drawn) | 413%[activator] | 326%[activator]
O=S(=O)(Nc1cccc(-c2ccc(N3CCOCC3)nn2)c1)c1ccccc1C(F)(F)F | -10% | -13%
CCn1c(CNC(=O)c2ccc(OC)c(OC)c2)nnc1SCC(=O)Nc1ccc(OC)cc1 | -5% | -14%
C=CCN=C1CC(C)(C)C(C(=O)OC)C(O)=C1C(=O)CCC (stereo not drawn) | -9% | -9%
CS/C(=C\[N+](=O)[O-])Nc1ccc(Cl)cc1 | -9% | -7%
COc1ccc(-c2csc3nc(C)nc(N4CCCCC4)c23)cc1OC | -23% | -22%
CN(C)CCCCOc1ccc(F)cc1 | -4% | i
Cc1cnc(N)c2c(=O)oc3ccccc3c12 | -5% | -14%
COc1cc(NC(=O)c2ccc(C)cc2)ccc1NC(=O)c1cc2ccccc2o1 | 1%&-7% | -5%&0%
O=C(Cn1c(=O)n(Cc2ccco2)c(=O)c2c3c(sc21)CCCCC3)Nc1ccccc1 | -7% | i
O=C(NCc1ccc(Cl)cc1)c1cccnc1 | -12% | i
O=C1CC(=O)Nc2cc(S(=O)(=O)N3CCOc4ccc(Cl)cc43)ccc2N1 | -5%&-15% | -20%&-20%
CN(CC(=O)Nc1c(Cl)cccc1Cl)C(=O)c1cccc(-n2cccc2)c1 | -7% | -1%
COc1ccc(-c2ccc(C(=O)C3CC3)cc2)cc1 | -14% | -6%
CN(C)C(=O)N1CCCC(C(=O)NCc2cccs2)C1 (stereo not drawn) | 12% | -10%
Cc1cc(Br)ccc1NC(=O)CN(C)C(=O)c1cc(S(=O)(=O)N(C)C)ccc1N1CCCC1 | -11% | i
CCOc1ccc(C(=O)Nc2ccc(-c3nc4cc(C)ccc4o3)cc2)cc1 | -9% | -15%
COc1cc(-c2ccno2)ccc1S(=O)(=O)N1CCN(c2ccc(F)cc2)CC1 | -16% | -8%
N#CC(c1cccc(Cl)c1)c1ccc2c(C(F)(F)F)cc(C(F)(F)F)nc2n1 (stereo not drawn) | 2.2µM* | .
CC(C)OC(=O)CCCCCN1C(=O)CSC1=S | 24% | -2%
N#CC12COC3(CCCCC3C1(C#N)C#N)OC2=N (stereo not drawn) | 0% | -14%
Cc1ccnc(NC(=O)c2ccc(S(=O)(=O)N3CCCC3)cc2)c1 | -15% | i

(next part)
SMILES | VACV Venus inh | VACV mCherry inh
COc1ccc(C2=NN(c3ccc(C(=O)O)cc3)C(c3ccc(OC)c(OC)c3)C2)cc1 (stereo not drawn) | 0% | -11%
CC(C)Cn1c(N)c(C(=O)CSc2nc3ncc(Cl)cc3[nH]2)c(=O)n(C)c1=O | -8% | i
O=C(O)c1cccc(NC(=S)NC(=O)c2ccc(-c3ccccc3)cc2)c1 | 2% | -8%
O=C(c1cc2ccccc2[nH]1)c1cc2cc(O)ccc2[nH]1 | ? | ?
CC(=O)NCCc1ccc(-c2csc(NC(=O)C3CC(=O)N(C4CCCC4)C3)n2)cc1 (stereo not drawn) | -12% | -15%
N/C(=N\OC(=O)/C=C/c1ccccc1)c1ccccc1 | -3% | -10%
Cc1ccc(Nc2nc(N)c(C#N)c(CC#N)c2C#N)cc1 | 3% | -12%
COc1ccc(N2CCN(C(=O)CCCCn3c(=O)[nH]c4ccsc4c3=O)CC2)cc1 | 7%&-7% | -16%&-15%
Cc1cccc(N2CCN(c3nc4ccccc4n4cnnc34)CC2)c1C | -13% | -2%
CC(/C=C/c1ccccc1)=N\Nc1nc(C)cc(C)n1 | -12% | -17%
Cc1ccccc1-n1c(SCC(=O)N2CCCC2)nnc1-c1ccccn1 | -1% | -4%
CCOC(=O)Cc1csc(SC(C)C(=O)NCC(=O)Nc2ccc(F)c(F)c2F)n1 (stereo not drawn) | -24% | i
CCn1cc2nc(SCC(=O)Nc3ccccc3F)n(Cc3ccc(C)cc3)c(=O)c2n1 | -12% | -17%
CN(C(=O)c1ccc(NC(=O)Cc2ccc(NC(=O)C3CCN(C(=O)CCc4ccccc4)CC3)cc2)cc1)C1CCCC1 | -9% | i
CN(C)CCCNC(=S)NCC(c1ccc(Cl)cc1Cl)c1c[nH]c2ccccc12 (stereo not drawn) | ? | ?
CC(=O)CSc1nnc2cc(C)c3ccccc3n12 | -5% | -2%
C[C@@H]1CN([C@H](C)CO)C(=O)CCCn2nncc2CO[C@H]1CN(C)C(=O)Nc1ccnc(N2CCOCC2)c1 | -20% | -14%
CCOC(=O)N1CCN(C(c2ccccc2)c2sc3nc(C)nn3c2O)CC1 (stereo not drawn) | -4% | -20%
CCOC(=O)c1sc2ncnc(N3CCN(c4ccc(OC)cc4)CC3)c2c1C | -3% | -7%
COc1ccccc1N1CCN(C(=O)COc2ccc(Cl)cc2Br)CC1 | ? | .
COc1ccc(N(C(=O)c2ccco2)C(C(=O)NC2CCCC2)c2cc(OC)c(OC)c(OC)c2)cc1 (stereo not drawn) | 0% | -4%
CCn1c(=O)c2ccccc2n2c(SCC(=O)N3CCc4ccccc4C3)nnc12 | -4% | -1%
Cc1ccc(S(=O)(=O)Nc2cccc(C(=O)NCC3CCCO3)c2)cc1F (stereo not drawn) | -16% | i
CN(C)CCCNC(=O)CCC1CCCCC1 | -3% | .
CCCCC1CCC(C(=O)N(CCCC)c2c(N)n(CCCC)c(=O)[nH]c2=O)CC1 (stereo not drawn) | -6% | -2%
O=C1CC(N2CCN(CCc3ccccn3)CC2)C(=O)N1c1ccc(Cl)cc1 (stereo not drawn) | -5% | -11%
Cc1ccc(C)c(NC(=O)CCN2C(=O)[C@@H]3Cc4ccccc4CN3C2=O)c1 | -19% | i
COC(=O)c1ccc(CC(=O)c2c(C)cc(O)cc2O)o1 | -8% | -21%
COC(=O)c1cc(OC)c(OC)cc1NC(=O)c1cc(C(C)(C)C)oc1C | 8% | -5%
CCCc1cc2nnc(SCC(=O)N(C)C3CCCCC3)n2c(N)n1 | 0% | -15%
